Screening data from PubChem.
Sa growth 42C = S. aureus growth inhibition at 42 and 30 °C, primary screen, LtaS inhibitor project, RN4220, two temperatures | AID 720641, 2013 | 0.53% of 170,000 active | OD600, 20 h, 42 °C; stronger effect = lower value | relative growth, % (concentration not given with the values);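 active = growth at 42 °C up to 50% and 20 or more points under that at 30 °C, or under 10% at both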;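 note: 300 nL library stock went into each well; scaled to the means of positive and negative controls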
HCMV UL50-53 inh = inhibitors of HCMV UL50-UL53 interaction, biochemical, HTRF; HCMV UL50-UL53 nuclear egress complex (human cytomegalovirus); normalized percent inhibition; inhibition, % (concentration not given with the values); 0.15% of 190,000 active;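 active = both replicates at 50% or more, plus weaker picks with an unusually low signal ratio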;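 note: stock transfer was 100 nL into about 20 µL; 0% = negative control wells and 100% = wells with untagged competitor protein; inactives centre near -12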
GIV-Gai inh = inhibitors of GIV peptide binding to Galpha-i3, primary screen, biochemical, fluorescence polarization, FITC-GIV GBA peptide, rat Galphai3. 90 min; stronger effect = lower value; scaled: aluminum fluoride 0%, vehicle 100%. Guanine nucleotide-binding protein G(i) subunit alpha-3 (Rattus norvegicus), P08753. percent of control (FP), % (no concentration beside the values). AID 1224905, 2016. 0.42% of 210,000 active;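 active = replicate mean at 85% of control or lower, very high polarization wells dropped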;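 note: wells of about 15 µL received 100 nL stock; the first replicate is given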
Target sequence (P08753 whole entry, looked up): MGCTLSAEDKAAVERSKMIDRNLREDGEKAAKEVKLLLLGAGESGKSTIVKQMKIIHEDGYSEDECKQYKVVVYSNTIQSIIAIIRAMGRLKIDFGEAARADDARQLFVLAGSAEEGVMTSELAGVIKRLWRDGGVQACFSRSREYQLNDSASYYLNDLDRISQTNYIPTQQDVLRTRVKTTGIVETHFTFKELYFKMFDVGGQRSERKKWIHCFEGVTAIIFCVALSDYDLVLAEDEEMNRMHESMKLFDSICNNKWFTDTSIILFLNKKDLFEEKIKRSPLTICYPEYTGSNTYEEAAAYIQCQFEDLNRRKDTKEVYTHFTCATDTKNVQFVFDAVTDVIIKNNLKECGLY
Sa growth 42C second temp = second read-out of Sa growth 42C, no call of its own (marks repeat the call); relative growth, %; measured here: growth at 30 °C;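 optical density after 20 h as mean of two plates; 100% = untreated growth and lower means inhibition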
* = called active by the depositor; . = not tested or not shown; & = joins results of further samples.

SMILES	Sa growth 42C	Sa growth 42C second temp	HCMV UL50-53 inh	GIV-Gai inh
Cc1oc(-c2ccccc2)nc1C(=O)N(C)CC(=O)Nc1ccc(N2CCOCC2)cc1	97	93	8	.
CC(C)OC(=O)c1c(-c2ccccc2)c(-c2ccccc2)nn(C)c1=O	88	68	-3	106
O=C1c2ccccc2C(=O)N1CSc1nnc(-c2cccs2)o1	93	83	-14	.
CNc1nc(=S)[nH]c2ccccc12	88	75	-29	.
COc1cccc(CN2CCc3nc(N4CCOCC4)ncc3C2)c1	99	91	-22	104
COc1ccc(-c2cc(=S)sc(N)c2C#N)cc1OC	81	33	-28	104
Cc1cccc(C(c2sc3nc(-c4ccco4)nn3c2O)N2CCN(c3ccccc3)CC2)c1 (configuration not stated)	137	100	.	102
COc1cccc(C(=O)N2CCc3c([nH]c4ccccc34)C2c2ccc(SC)cc2)c1 (configuration not stated)	107	104	.	105
N#Cc1c(Nc2ccccc2Cl)s[nH]c1=O	11	5	-29	109
O=c1cnc2ccccc2n1Cc1cc(=O)n2ccsc2n1	90	85	-10	.
CC(C)(C)NC(=O)Cn1cnc2c(cnn2-c2ccccc2)c1=O	104	98	-18	106
Cc1ccccc1Nc1nc(N)nc(COC(=O)Cc2c[nH]c3ccccc23)n1	104	98	-18	.
COc1ccc(NC(=O)c2nn(C)c(C(F)(F)F)c2Cl)c(OC)c1	.	.	-12	102
O=C(O)CCC(=O)Nc1ccc(S(=O)(=O)Nc2nccs2)cc1	103	99	-10&-12	.
Cc1nn(CCCC(=O)NCc2cccc(Cl)c2)c(=O)c2c(-n3cccc3)n(-c3ccccc3)nc12	.	.	4	102
O=C(CCCc1ccccc1)N/N=C/c1ccc(O)cc1O	105	70	-56	108
CC1SCC(NC(=O)c2ccccc2)CS1 (configuration not stated)	92	98	1	102
O=S(=O)(Cc1ccccc1)N1CCCC(c2nc(-c3cccs3)no2)C1 (configuration not stated)	96	75	-10	100
Cc1ccc2c(c1)c(=O)n(CCCOC(C)C)c1nnc(SCc3ccc(Cl)cc3)n21	.	.	-9	98
CCn1c(=S)ccc2ccccc21	122	99	.	102
Cc1nc2nc(N)[nH]c(=O)c2nc1C	90	93	-20	102
Oc1ccccc1C1C=CCC1 (configuration not stated)	103	88	-24	.
CCC(=O)N1CCc2cc(Br)cc(S(=O)(=O)CCC(=O)N3CCN(c4ccccc4OC)CC3)c21	87	90	4	98
CSC(=NC1CCCCC1)Nc1cc(-c2ccccc2)[nH]n1	81	75	.	107
CC(O)(C(=O)NN=C1CCCC1)c1ccccc1 (configuration not stated)	102	105	-9	102

Next compounds.
SMILES	Sa growth 42C	Sa growth 42C second temp	HCMV UL50-53 inh	GIV-Gai inh
CC(C)CNc1ncnc2sc3c(c12)CCCC3	87	83	2	.
Cc1cc(C(=O)O)c(C#N)c(N)n1	86	87	-10	.
O=C(C1CC1)N1CCc2cc(Br)cc(S(=O)(=O)N3CCN(C4CCCCC4)CC3)c21	109	89	-4	102
CCN(CC)S(=O)(=O)c1ccc(N2CCCC2=O)cc1Cl	99	99	-31	100
COc1ccc(NC(=O)C(C)Sc2cc(-c3ccccc3)nc(C)n2)cc1Cl (configuration not stated)	101	80	-14	96
CCC(=O)N1CCc2cc(Br)cc(S(=O)(=O)CCC(=O)Nc3cccc(CC)c3)c21	99	95	0	103
CC(Sc1nnc2sc3ccccc3n12)C(=O)O (configuration not stated)	94	86	-7	109
Cc1cccc(C)c1NC(=O)CSc1ncccc1C(=O)O	96	96	-28	.
Cc1cc(C)c(-c2ccn(C(=O)c3cc(-c4ccccc4)oc3C)n2)[nH]1	97	83	-35	113
Cc1ccc(S(C)(=O)=O)cc1C(=O)NC1CCC(C)CC1 (configuration not stated)	99	99	-11	.
O=C(NCCCN1CCN(c2ccc(F)cc2)CC1)C1c2ccccc2C(=O)N2CCc3ccccc3C12 (configuration not stated)	99	77	-31	102
O=S1(=O)c2cccc3cccc(c23)N1Cc1cccc(Br)c1	105	91	.	102
O=C(Nc1ccc(Cl)cc1)C1CC(=O)N(CCc2c[nH]c3ccc(F)cc23)C1 (configuration not stated)	.	.	-11	106
Cn1c(N2CCN(S(=O)(=O)c3ccc(Cl)cc3)CC2)nc2ccccc21	116	94	-10	105
CC(C)(C)C(=O)Nc1ccc2nc(SCC(=O)N3CCOCC3)sc2c1	105	89	-16&-12	116&113
CC(=O)N1CCCc2cc(NC(=O)c3cccc(Br)c3)ccc21	.	.	13	100
COc1ccc(-c2csc(-c3c(N)c(C(=O)c4ccc(F)cc4)n4ccccc34)n2)cc1	.	.	15	108
O=C(NCCc1c[nH]c2ccccc12)C1Cc2ccccc2CN1C(=O)c1ccco1 (configuration not stated)	91	90	-11	.
C=CCn1c(O)c(CN2CCN(Cc3ccccc3)CC2)c(C)c(C#N)c1=O	94	79	-8	102
CCCCCCN1C(=O)NC(c2ccccc2)C1=O (configuration not stated)	100	92	-24	107
Clc1cccc(N2CCN(c3c4c(nc5nncn35)CCC4)CC2)c1	84	89	7	104
CNC(=O)Cn1cc(S(=O)(=O)Cc2ccccc2)c2ccccc21	106	92	2	110
CCn1c(=O)c2cc(C(=O)NCCCN3CCC(C)CC3)sc2c2ccccc21	109	92	-64	103
CCCCCn1c(=O)[nH]c2cc(C(=O)N3CCN(c4cccc(C(F)(F)F)c4)CC3)ccc2c1=O	98	90	-13	104
Cc1ccc(-c2nn3c(-c4ccccc4C)nnc3c3ccccc23)cc1	100	91	-78	111

The results go on:
SMILES	Sa growth 42C	Sa growth 42C second temp	HCMV UL50-53 inh	GIV-Gai inh
Nc1nc2nccnc2c(=O)[nH]1	90	88	-20	101
COc1nsnc1NS(=O)(=O)c1ccc(-n2c(-c3ccc4ccccc4n3)n[nH]c2=S)cc1	91	75	-45	98
COc1ccc(OC)c(C2C(C(=O)Nc3ccccc3)=C(C)Nc3nnnn32)c1 (configuration not stated)	.	.	-1	104
Cc1nc2cc(NS(=O)(=O)c3ccccc3F)ccc2s1	118	97	-1	102
S=C(NCCN1CCOCC1)NC1CCCc2ccccc21 (configuration not stated)	87	82	-6	.
CCCN(Cc1nc2cc(Cl)ccc2c(=O)[nH]1)C(=O)c1ccc(S(=O)(=O)N2CCCC2)cc1	115	96	1	.
CCOc1ccc(C2C(C(=O)c3ccc(C)o3)=C(O)C(=O)N2Cc2cccnc2)cc1OC (configuration not stated)	84	80	-40	104
Cc1ccccc1-c1nc(CS(=O)(=O)CC(=O)N2CCCC2)c(C)o1	119	91	2	104
COc1ccccc1-c1c(C(F)(F)F)oc2c(CN3CCCCC3C)c(O)ccc2c1=O (configuration not stated)	94	88	-69	102
CCCc1ccc(S(=O)(=O)N(C)CCc2noc(COc3ccc(Cl)cc3)n2)cc1	.	.	-6	98
COc1ccc(C(CC(=O)NCCc2ccco2)n2cccc2)cc1 (configuration not stated)	103	86	-29	105
Cc1cccc(N2CCN(CC(O)c3c[nH]c4ccccc34)CC2)c1C (configuration not stated)	.	.	-36	122
COc1ccc(C2CC(=O)N3CN(C4CCCCC4)CSC3=C2C#N)c(OC)c1 (configuration not stated)	87	80	-28	105
Cc1ccc(Cn2c(=O)n(-c3ccc(C)c(C)c3)c(=O)c3oc4ccccc4c32)cc1	114	98	.	106
O=S(=O)(Nc1cccc(-c2cn3ccccc3n2)c1)c1ccc2ccccc2c1	.	.	-18	99
Cc1cc(C(=O)NCc2ccccc2Cl)c2c(C)nn(-c3cccc(F)c3)c2n1	90	88	.	102
CC(C)c1ccc(NC(=O)CSC2=Nc3ccccc3C3=NC(CC(=O)NC4CCCCC4)C(=O)N23)cc1 (configuration not stated)	89	100	.	99
CCn1c(COc2ccc(Cl)c(C)c2)nc2cc(S(=O)(=O)N(C)C)ccc21	96	97	6	.
Cc1ccc(C2C3=C(CCCC3=O)Nc3ccccc3N2C(=O)c2ccccc2)cc1 (configuration not stated)	.	.	-9	92
Cc1ccc(C(=O)NCCc2csc3nc(-c4ccccc4C)nn23)cc1C	.	.	-4	99
C=CC[C@H]1CC(C)=C[C@H](CC=C)N1C(C)=O	91	83	-13	102
C=CCn1cc(C(=O)c2cc(Cl)ccc2O)cc(C#N)c1=O	100	82	-20	.
O=C(CC1Sc2ccccc2NC1=O)Nc1ccc(F)cc1 (configuration not stated)	86	83	-39	102
Cc1ccc(NC(=O)N2CCC3(CC2)Nc2ccccc2-n2cccc23)cc1	.	.	8	107
c1cncc(-c2noc(-c3ccc4c(c3)OCO4)n2)c1	131	85	-12	.

Entries of single compounds, looked up by structure:
N#Cc1c(Nc2ccccc2Cl)s[nH]c1=O as listed: Sa growth 42C: 11; Sa growth 42C second temp: 5; HCMV UL50-53 inh: -29; GIV-Gai inh: 109
O=C(O)CCC(=O)Nc1ccc(S(=O)(=O)Nc2nccs2)cc1 as listed: Sa growth 42C: 103; Sa growth 42C second temp: 99; HCMV UL50-53 inh: -10&-12; GIV-Gai inh: .

Ordered by length of the SMILES (high to low): part of the list above.
SMILES	Sa growth 42C	Sa growth 42C second temp	HCMV UL50-53 inh	GIV-Gai inh
CCCN(Cc1nc2cc(Cl)ccc2c(=O)[nH]1)C(=O)c1ccc(S(=O)(=O)N2CCCC2)cc1	115	96	1	.
COc1ccccc1-c1c(C(F)(F)F)oc2c(CN3CCCCC3C)c(O)ccc2c1=O (configuration not stated)	94	88	-69	102
COc1ccc(OC)c(C2C(C(=O)Nc3ccccc3)=C(C)Nc3nnnn32)c1 (configuration not stated)	.	.	-1	104
Cc1cccc(N2CCN(CC(O)c3c[nH]c4ccccc34)CC2)c1C (configuration not stated)	.	.	-36	122
COc1ccc(C(CC(=O)NCCc2ccco2)n2cccc2)cc1 (configuration not stated)	103	86	-29	105

Two entries from above, with two lines to a compound.
Each structure is followed by: Sa growth 42C	Sa growth 42C second temp	HCMV UL50-53 inh	GIV-Gai inh
O=S(=O)(Nc1cccc(-c2cn3ccccc3n2)c1)c1ccc2ccccc2c1
→ .	.	-18	99
Cc1cc(C(=O)NCc2ccccc2Cl)c2c(C)nn(-c3cccc(F)c3)c2n1
→ 90	88	.	102

Remaining list, next part.
SMILES	Sa growth 42C	Sa growth 42C second temp	HCMV UL50-53 inh	GIV-Gai inh
COc1cc2c(cc1NS(=O)(=O)c1ccc3c(c1)n(C)c(=O)n3C)n(C)c(=O)n2C	.	.	-24	104
CCOc1ccc(Oc2cc3c(cc2NC(=O)c2sccc2C)n(C)c(=O)c(=O)n3C)cc1	.	.	2	102
O=C(CNC(=O)c1ccc(-c2noc(C3CCCC3)n2)cc1)Nc1ccc2c(c1)OCO2	.	.	-32	108
CCOc1cc(-c2ccc(OC(=O)c3ccc(Cl)cc3)c(OC)c2)cc(=O)c2c(C)oc(C)c12	103	82	-41	113
Clc1ccc(-c2csc(-c3cccc(-n4cccc4)c3)n2)cc1	103	91	-4	109
COc1ccc(CN2CC(C(=O)NCC3CCCO3)CC2=O)cc1 (configuration not stated)	89	85	1	102
CC(C)c1ccc(S(=O)(=O)/N=C2/C=C(Sc3ncn[nH]3)C(=O)c3ccccc32)cc1	1.2*	0.7*	.	13*
CCCOC(=O)C1=C(C)NC2=C(C(=O)CC(c3ccc(OC)c(OC)c3)C2)C1c1ccc(SC)cc1 (configuration not stated)	.	.	-15	97
N#C/C(=C\c1ccc(N2CCCCC2)o1)C(N)=O	98	91	-217	197
O=C1NCCN1CCNC(=S)Nc1ccc(OC(F)(F)F)cc1	114	88	-12	105
COC(=O)c1ccc(Oc2nc(NC(C)C)nc(NC(C)C)n2)cc1	.	.	4	102
Cc1ccc(-c2nnc(NC(=O)c3ccc(S(=O)(=O)N4CCCC4)cc3)o2)c(C)c1	1.6*	-0.1*	-23	105
CCCN1CCC(NC(=O)Nc2ccccc2C(=O)OC)CC1	97	93	-15	103
Nc1ccc(-c2nc3ccccc3o2)cc1	.	.	-15	108
CN1C(=O)C(c2c(-c3ccc(Br)cc3)[nH]c3c2c(=O)[nH]c(=O)n3C)c2ccccc21 (configuration not stated)	.	.	-12	106
